eIF4H inh = human eIF4H binding inhibitors, primary screen, translation initiation inhibitor project, biochemical, uHTS, fluorescence polarization; Eukaryotic translation initiation factor 4H (Homo sapiens), Q15056; eIF4H fluorescence polarization binding assay; inhibition, % at 35 µM; 0.94% of 290,000 active;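 active means 50% or more with normal probe brightness, or confirmed in later tests; inconclusive means above 50% with abnormal brightness, or retests that disagree; inactive means below 50% or failed in later tests; about a fifth of its hits are not listed in these tables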;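 further: calls also rest on retests at 20 µM and on dose response follow-up; 0% = protein and probe with vehicle and 100% = probe without protein; strong numbers were not always called active; many hits fall short of the cut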
MT1-MMP act inh = blockers of MT1-MMP proenzyme processing, primary screen, HT1080 RFP-PRO-GFP cells, GFP/RFP fluorescence. GFP/RFP ratio fluorescence, overnight; percent of plate control window, DMSO zero. GFP/RFP ratio change, % at 20 µM. 0.061% of 360,000 active;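 active means GFP/RFP ratio change of at least 30% with cell ATP level not reduced by more than half and red fluorescence within 50% of control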; further: strong numbers were not always called active
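Read-out: GFP/RFP fluorescence ratio; Test system: RFP-PRO-GFP reporter HT1080 cells; Compound dosing: single-point 20 µM compound, 1% DMSO; Times: overnight compound exposure at 37 °C.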
Rce1 inh = yeast Rce1p protease inhibitors, primary screen, biochemical, fluorescence, cell-free homogeneous; CAAX prenyl protease 2 (Saccharomyces cerevisiae (strain ATCC 204508 / S288c)), Q03530; yeast membranes, quenched prenylated peptide cleavage fluorescence; calls only; 0.27% of 290,000 active; AID 2563, 2010;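 active means fall in fluorescence gain of 50% or more versus controls, with final raw signal at or below 3038400; inconclusive means same 50% fall but final raw signal above 3038400; inactive means fall in fluorescence gain under 50%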;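 further: plate controls were neutral control wells for no effect and wells lacking membranes for full effect; tested at 10 µM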
Target sequence (Q03530 whole entry, looked up): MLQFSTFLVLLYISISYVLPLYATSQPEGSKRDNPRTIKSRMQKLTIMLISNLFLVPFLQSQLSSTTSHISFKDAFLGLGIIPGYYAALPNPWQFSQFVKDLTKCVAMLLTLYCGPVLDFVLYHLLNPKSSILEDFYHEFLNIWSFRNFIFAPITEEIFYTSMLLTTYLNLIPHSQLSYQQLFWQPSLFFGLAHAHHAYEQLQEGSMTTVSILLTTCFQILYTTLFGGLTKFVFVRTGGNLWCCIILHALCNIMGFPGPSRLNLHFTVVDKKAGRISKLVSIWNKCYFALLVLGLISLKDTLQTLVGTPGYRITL
HIV Env fusion = inhibitors of HIV-1 Env-driven cell-cell fusion, primary screen, HeLa-JRFL effector, CEM21 target cells, luciferase; inhibition, % at 12.3 µM; 1.1% of 360,000 active;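 active means mean replicate inhibition score of at least 50 and every replicate individually at or above 50; inconclusive means only one of the two criteria met; inactive means mean below 50 and not all replicates reaching 50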;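 further: 0% = plate neutral controls and 100% = maraviroc near 300 nM; one replicate is shown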
PABP polyA inh = PABP poly(A) RNA binding inhibitors, primary screen, biochemical, fluorescence polarization, uHTS; inhibition, % at 35 µM; 1% of 290,000 active; AID 2014, 2009;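 active means 50% or more with normal probe brightness, or confirmed in later tests; inconclusive means above 50% with abnormal brightness, or retests that disagree; inactive means below 50% or failed in later tests; about a fifth of its hits are not listed in these tables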;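 further: calls also rest on retests at 20 µM and on dose response follow-up; controls were probe without protein and protein plus probe with vehicle; some compounds called inactive have numbers as strong as hits; many hits fall short of the cut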
Target sequence (P11940 whole entry, looked up): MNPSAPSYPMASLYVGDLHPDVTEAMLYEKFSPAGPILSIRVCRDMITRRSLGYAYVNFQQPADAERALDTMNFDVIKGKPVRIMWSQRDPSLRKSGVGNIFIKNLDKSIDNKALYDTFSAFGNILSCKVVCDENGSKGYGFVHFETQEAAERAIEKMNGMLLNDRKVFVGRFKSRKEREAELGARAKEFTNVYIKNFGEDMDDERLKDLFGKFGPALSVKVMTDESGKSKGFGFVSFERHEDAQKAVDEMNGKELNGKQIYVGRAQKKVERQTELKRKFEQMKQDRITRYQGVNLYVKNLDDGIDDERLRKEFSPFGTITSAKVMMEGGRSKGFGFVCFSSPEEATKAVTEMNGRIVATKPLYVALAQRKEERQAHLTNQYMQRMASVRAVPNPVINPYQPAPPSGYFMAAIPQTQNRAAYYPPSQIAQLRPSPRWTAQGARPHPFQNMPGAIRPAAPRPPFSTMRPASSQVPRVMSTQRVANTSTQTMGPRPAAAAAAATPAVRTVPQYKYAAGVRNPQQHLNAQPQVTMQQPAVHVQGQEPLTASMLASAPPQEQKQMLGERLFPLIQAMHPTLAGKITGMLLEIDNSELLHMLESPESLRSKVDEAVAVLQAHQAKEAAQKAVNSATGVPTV
UUG fidelity = modulators of yeast start codon fidelity, primary screen, whole organism, S. cerevisiae, single point, plate reader | S. cerevisiae UUG-firefly luciferase reporter, luminescence/redox ratio | activity score, % at 18.7 µM | 0.13% of 350,000 active | AID 602363, 2012;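 active means replicate mean at a twofold rise or more, about +100% in these data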;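 further: firefly luciferase made from a UUG start codon reports start codon fidelity; reporter light over untreated wells divided by growth signal over untreated wells; some hits fall short of that in this replicate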
CSC inhib = cancer stem cell viability inhibitors, primary screen, luminescence | AID 2717, 2010 | cancer stem cell-like cells viability | inhibition, % at 7.5 µM | 1.1% of 300,000 active;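 active means mean at 75% or more and at least half the replicates too; inconclusive means mean and replicates disagree; tested in HMLE shEcad cells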;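 further: 0% = median of negative and 100% = median of positive control wells; the first replicate is given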
eIF4H inh retest = further read-out of eIF4H inh, marked with its call; inhibition, %; compound at 20 µM; confirmation average;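 mean of two retest wells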
PABP polyA inh retest = recorded beside PABP polyA inh, whose call it bears; inhibition, %; compound at 20 µM; confirmation repeats;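 mean of two retest wells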
MT1-MMP act inh RFP = also measured in MT1-MMP act inh; calls as there; RFP signal change, %; measured here: RFP expression control read;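 0 = vehicle wells; hits needed this value within 50% of zero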
* hit, by the source's call; i = inactive; ? = inconclusive; · = not tested or not shown; & = joins results of further samples; [ ] = dose if it differs, or a comment.

SMILES	eIF4H inh	MT1-MMP act inh	MT1-MMP act inh RFP	Rce1 inh	HIV Env fusion	PABP polyA inh	UUG fidelity	CSC inhib	others
CCCn1c(N)c(C(=O)COC(=O)CCNS(=O)(=O)c2ccccc2F)c(=O)[nH]c1=O	·	-2	-1	i	-14	·	·	1
O=C(CN(c1ccc(Cl)c(Cl)c1)S(=O)(=O)c1ccccc1)N1CCc2ccccc2C1	-3	-5	-13	i	·	-14	·	19
COc1ccc(CN(C(=O)c2cc3ccccc3oc2=O)C2CCS(=O)(=O)C2)cc1 (stereo unspecified)	-3	0	5	i	-7	-3	·	-12
CC1CCC2(CC1)NC(=O)N(CC(=O)Nc1cccc(C#N)c1)C2=O (stereo unspecified)	·	1	6	·	17	·	-4	·
Cc1cc(=O)oc(C)c1C(=O)OCC(=O)c1ccc(Cl)c(Cl)c1	-14	25	37	i	3	38	-9	-1
COCCN(C(=O)CCC(=O)Nc1cc(C)on1)C(C(=O)NC(C)(C)C)c1ccc(OC)cc1 (stereo unspecified)	7	0	6	i	-1	5	-2	·
Nc1nnc(C(F)(F)F)s1	-5	0	-3	i	2	-12	·	-2
CC(C)c1ccccc1NS(=O)(=O)N(C)C	-3	-2	-4	i	14	5	·	-5
Cc1cccc(NC(=O)CN(C)C(=O)C2CC2)c1C	·	0	0	·	·	·	-15	-5
CN(Cc1ccccc1)c1nc(N)nc(Cl)c1C=O	-10	1	-6	i	8	8	·	0
CC(C)c1ccc(OC(=O)NCCO)cc1	3	4	0	i	·	12	-6	-15
O=C1c2ccccc2C(=O)N1c1ccc(Cl)cn1	-13	7	3	i	-52	-2	-6	·
N#Cc1ccc(CN2CCN(C(=O)c3ccc(S(=O)(=O)NCc4ccco4)cc3)CC2)cc1	·	-4	-22	·	·	·	-2	-9
CC(=O)NC1C(=O)N=C(SCC(=O)Nc2ccc(C(F)(F)F)cc2Cl)NC1=O (stereo unspecified)	-10	-2	4	i	-22	-2	·	-4
COCCCNCCOCCOc1ccc(Cl)cc1C(C)(C)C	7	-1	-2	i	·	10	2	2
COCCNC(=O)COC(=O)c1ccc(OCC(=O)Nc2ccccc2OC)c(OC)c1	-4	0	1	i	15	12	·	12
C/C(=N\O)c1ccc2c(c1)OCCO2	-6	1	-1	i	13	35	-17	-3
CCN1C[C@@H]2[C@@H]3C(=O)N(Cc4ccccc4)C(=O)[C@@H]3[C@](Cc3ccccc3)(C1=O)N2C(=O)c1ccc(C(F)(F)F)cc1	·	-6	-7	·	29	·	10	·
CN(CC(=O)N1CCN(C2CCCCC2)CC1)S(=O)(=O)c1cccc2nsnc12	-5	4	5	i	31	6	-6	-7
CCCS(=O)(=O)N1CCN(C(=O)COc2ccc(OC)cc2)CC1	2	-3	-1	i	-18	-1	·	0
CC(C)CCNC(=O)c1cc(-c2ccncc2)nc2ccc(S(=O)(=O)N3CCOCC3)cc12	3	0	11	i	4	0	-4	2
CN(CCOc1ccc(Cl)cc1)C(=O)c1cc(S(=O)(=O)N2CCOCC2)ccc1N1CCCC1	·	8	-8	·	10	·	13	·
CCCCNc1c(-c2ccc(OC)c(SC(C)CC)c2)nc2ccc(C)cn12 (stereo unspecified)	·	10&4	-17&-15	·	2	·	-14	100*
CCOc1ccc2[nH]c3c(N4CCN(C(=O)c5ccco5)CC4)ncnc3c2c1	6	6	2	·	25	2	-13	2
Cc1ccc(C(=O)N(CC(=O)NC2CCCCC2)c2ccccc2C)s1	-6	2	-1	i	·	-5	-11	-16

Next part
SMILES	eIF4H inh	MT1-MMP act inh	MT1-MMP act inh RFP	Rce1 inh	HIV Env fusion	PABP polyA inh	UUG fidelity	CSC inhib	others
CC(=O)N1CCCc2cc(S(=O)(=O)NC(C(=O)NC3CCCCC3)C(C)C)ccc21 (stereo unspecified)	8	0	2	i	-6	0	·	-8
O=C(O)Cc1ccc(NC(=O)c2ccc3c(c2)C(=O)N(Cc2ccco2)C3=O)cc1	100*	-1	2	i	16	59*	-21	-6
CCc1cc(C(=O)O)c(NC(=O)/C=C/c2ccc(OC)cc2)s1	4	3	1	i	-22	-7	-13	-9
CCOC(=O)C1=C2c3cc(OC)c(OC)cc3CC(C)(C)N2C(=O)C1=O	12	-3	3	i	-7	-9	-12	-15
COc1cccc(CNc2nc(-c3cccnc3)nc3ccccc23)c1	4	1	-3	i	22	-1	-3	-7
CCCCn1c(SCC(=O)NCc2ccc(OC)c(C(=O)O)c2)nc2cc(S(N)(=O)=O)ccc21	-3	-5	-13	i	17	7	-7	-10
C/C(=N/NC(=O)c1ccc2c(c1)OCCO2)c1ccc([N+](=O)[O-])cc1	-15	4	3	i	8	-6	-16	-6
CC(=O)Nc1ccc(S(=O)(=O)N(C)CC(=O)OC(C)C(=O)NC2CCCCC2)cc1 (stereo unspecified)	·	0	3	i	-8	·	-12	-5
Cc1cccc(NC(=O)c2sc3nc(-c4ccccc4)cn3c2C)n1	3	0	-12	i	·	-13	-16	20
O=C(Nc1cccc(-c2nc3ncccc3o2)c1)c1ccccc1	-5	1	-1	i	-14	-8	-1	-10
O=C(COC(=O)c1cc(C(F)(F)F)cc(C(F)(F)F)c1)NCc1ccc(Cl)cc1	-3	1	6	i	-2	-3	1	-4
CCCCNC(=S)NCc1ccc2[nH]c3c(c2c1)CCCC3	6	-3	-9	i	i	8	1	11
COc1cc(/C=C2\SC(=S)N(CC(=O)Nc3cccnc3)C2=O)cc(OC)c1OC	-10	6	6	i	1	-6	·	-10
CC(=O)c1c(C)[nH]c(C(=O)OCC(=O)NCCc2ccc(Cl)cc2)c1C	-4	-3	-14	i	·	-7	·	·
CCNC(=O)/C(C#N)=C/c1c(N2CCN(C)CC2)nc2c(C)cccn2c1=O	-7	-3	4	i	-15	3	-8	-4
O=C(NC(=S)NCc1cccnc1)c1ccccc1F	-3	0	-2	i	9	4	-29	·
Cc1c(NC(=O)COC(=O)C(c2ccc(Cl)cc2)C(C)C)c(=O)n(-c2ccccc2)n1C (stereo unspecified)	-10	3	-7	i	17	1	-7	-14
Nc1ccc(S(=O)(=O)NNC(=O)C(=O)NNc2ccccn2)cc1	-3	2	2	i	·	1	-13	-2
C=CCOc1ccc(CN(C)C(=O)C2CCCO2)cc1 (stereo unspecified)	-7	·	·	i	-7	12	-4	-4
Cc1cccc(NC(=O)Cn2nc(-c3ccco3)ccc2=O)c1C	-10	-2	1	i	3	3	-19	12
CC1(C)S[C@@H]2[C@H](NC(=O)[C@H](N)c3ccccc3)C(=O)N2[C@H]1C(=O)OC1OC(=O)c2ccccc21 (stereo partly specified)	·	3	3	·	·	·	-28	0
CCOc1cc(C(=O)N/N=C(\C)Cc2ccc(OC)cc2)cc(OCC)c1OCC	-2	2	7	i	-12	-8	-20	1
CN1CCS/C1=C/C=C1\SC(=S)N(CC(=O)O)C1=O	?	-95	4	i	16	?	56	4
Cc1ccc(S(=O)(=O)N2CCCCC2)cc1C(=O)NCc1ccncc1	-7	8	1	·	5	-7	1	-13
CCOc1nc(SCCOc2ccc(Cl)cc2Cl)nc(N(C)C)n1	-4	-1	-4	i	7	0	·	42

Of the compounds above, 2 have a thiophene ring, fused or not:
SMILES	eIF4H inh	MT1-MMP act inh	MT1-MMP act inh RFP	Rce1 inh	HIV Env fusion	PABP polyA inh	UUG fidelity	CSC inhib	others
Cc1ccc(C(=O)N(CC(=O)NC2CCCCC2)c2ccccc2C)s1	-6	2	-1	i	·	-5	-11	-16
CCc1cc(C(=O)O)c(NC(=O)/C=C/c2ccc(OC)cc2)s1	4	3	1	i	-22	-7	-13	-9

The list goes on:
SMILES	eIF4H inh	MT1-MMP act inh	MT1-MMP act inh RFP	Rce1 inh	HIV Env fusion	PABP polyA inh	UUG fidelity	CSC inhib	others
CCC(C)(C)n1nnnc1C(C(C)C)N1CCN(C(=O)c2ccco2)CC1 (stereo unspecified)	-6	-2	2	i	30	-5	-7	·
O=C(O)C1CCCCC1C(=O)NCCCN1CCCC1=O (stereo unspecified)	4	-5	1	i	-15	-2	-9	-17
COc1ccc(NC2CCCN(C(=O)c3ccc(C)nc3)C2)cc1 (stereo unspecified)	-7	-1	5	i	-2	-3	7	-4
Cc1nc2ccc(NC(=O)c3ccc([N+](=O)[O-])cc3)cc2s1	-4	5	1	i	2	18	·	-11
O=C1C2C(c3cccc(/C=C/c4ccccc4)c3)CC=CC2C(c2ccc(C(F)(F)F)cc2)N1Cc1ccccc1 (stereo unspecified)	-7	-10	-15	i	28	15	-6	21
CC(NC(=O)C1CCC(C(C)(C)C)CC1)C(c1ccccc1)N1CCOCC1 (stereo unspecified)	-14	-6	-4	i	5	0	-12	·
CC(C)(C#N)c1cc(Cn2cncn2)cc(C(C)(C)C#N)c1	-4	·	·	i	·	6	·	-4
O=C(OC(C(=O)NCc1ccccc1)c1ccccc1)c1ccco1 (stereo unspecified)	-1	-4	-6	i	2	-9	-4	-11
CCOC(=O)c1c(-c2ccccc2)cn2c(C)cc(C)nc12	1	3	4	i	-74	-9	-7	-5
COc1ccc(OCc2n[nH]c(=S)n2-c2ccc(C)cc2)cc1	-10	4	2	i	-21	1	·	-28
C=CCn1c(SCC(=O)Nc2sccc2C(N)=O)nc2sc(C)c(C)c2c1=O	·	3	-6	i	58*	·	-15	·
C=CCOC(=O)C1=C[C@H](c2coc3ccccc3c2=O)C[C@H](OCCCCO)O1	·	-5	3	i	15[16.7 µM]	·	3&-16	-7
O=C(c1cccc(F)c1)N1CCN(C(=O)C2CC2)CC1	-2	1	4	i	-138	-4	-10	10
Cc1ccc(NC(=O)C2C3C=CC4(O3)C2C(=O)N(CCCN2CCCCC2)C4C(=O)NC2CCCCC2)cc1C (stereo unspecified)	-10	2	6	i	-2	0	0	-37
Cc1ccc(-c2nnc(COC(=O)c3ccco3)o2)cc1	53	-2	2	i	26	-1	-9	0	eIF4H inh retest=-5;PABP polyA inh retest=7
COc1ccc(Cl)cc1-c1nc(-c2ccc(Br)o2)no1	-5	-2	4	i	18	1	-15	0
COc1c2c(cc3oc(CO[C@@H]4O[C@H](CO)[C@@H](O)[C@H](O)[C@H]4O)cc(=O)c13)O[C@H](C(C)(C)O)C2	·	1	8	·	16	·	-21	·
COc1ccccc1C(=O)Nc1cc2cc(Br)ccc2oc1=O	1	-2	0	i	·	-8	-11	-2
CSc1nnc(C2CCN(CC(=O)Nc3ccccc3N3CCOCC3)CC2)n1C(C)C	-10	2	4	i	-6	17	2	-1
COCCN1CCN(C(=O)c2ccc3oc(CCCc4ccccc4)nc3c2)CC1	-2	1	1	i	-1	1	-9	-20
COc1cccc(C2NC(CCSC)(C(=O)O)C3C(=O)N(C(C)C)C(=O)C23)c1O (stereo unspecified)	2	-3	-1	i	-8	4	-15	-8
O=c1c2c(-c3ccccc3)csc2nc2n1CCC2	1	·	·	i	·	7	-19	-4
Cc1cc(CCN2CCC(=O)NC2=S)ccc1OC(C)C	-4	2	2	i	·	-1	-31	13
CCOC(=O)c1ccc(CNC(=O)Cn2nnc(-c3cccc(C)c3)n2)o1	2	-2	0	i	·	8	·	-6
O=c1[nH]nc(-c2ccc(F)cc2)cc1Cc1ccccc1	6	3	1	i	11	7	·	-7

Source: PubChem BioAssay
